NS1 inh = qHTS Assay for Inhibitors of Influenza NS1 Protein Function | S. cerevisiae slowed by influenza A NS1, growth recovery by OD600 | AID 2326, 2010 | 270,000 tested, 0.4% active | Potency, µM (top dose mostly 46.1 µM), for inactives: top-dose activity, positive = more growth; also: actives are rising curves; nearly all actives have a fitted effect of over 50% in size
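In this qHTS, NS1 from influenza A is expressed in budding yeast, where it slows growth. Cells are switched from glucose to 2% galactose medium (pH 6.0, -URA), treated with compound, and growth recovery is read at OD600.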
SARS PLP yeast = qHTS of Yeast-based Assay for SARS-CoV PLP; S. cerevisiae expressing SARS-CoV PLpro, growth rescue; control for the full effect not named in the record; Potency, µM (titrated, usually from 32.9 µM), inactives show top-dose activity, positive = growth rescue; 330,000 tested, 0.19% active; also: 0% is about no effect; nearly all actives have a fitted effect of over 55% in size; growth read by luminescence after 48 h
MARV entry inh = qHTS for inhibitors of binding or entry into cells for Marburg Virus; Marburg virus pseudotyped entry inhibition, cell reporter; control for the full effect not named in the record; about a third of the inactives were read at about 46 µM; Potency, µM (series often up to 37.8 µM), for the others: at the highest dose activity change, negative = inhibition, usual class: inhibitors; 300,000 tested, 1.8% active; AID 540276, 2011; active = well fitted inhibition curve with a large enough effect; inconclusive = small, poorly fitted or top-dose-only effect, or effect the other way; inactive = flat fitted curve, though single readings scatter; tested in HEK293 cells; about a fifth of its hits are not listed in these tables; also: % is scaled to controls: 0 for no effect and ±100 for the full control effect; luciferase read-out
Cruzain inh Det = qHTS Assay for Promiscuous and Specific Inhibitors of Cruzain (with detergent); Cruzipain (Trypanosoma cruzi), P25779; purified cruzain, Z-FR-AMC fluorescence, 0.01% Triton; Potency, µM, for inactives: max response, negative = inhibition, most hits filed as inhibitors; 200,000 tested, 0.43% active; AID 1478, 2009; active = well fitted curve in the direction sought with a large enough effect; inconclusive = small, poorly fitted or top-dose-only effect, or another doubt; inactive = no such curve, though single readings can be large; an effect the other way counts as inactive or inconclusive;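 also: plate controls were neutral wells for no effect and buffer without enzyme for full effect; nearly all actives have a fitted effect of over 40% in size; top concentration of the series not given in the record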
Target sequence (P25779 123-467 limits assumed): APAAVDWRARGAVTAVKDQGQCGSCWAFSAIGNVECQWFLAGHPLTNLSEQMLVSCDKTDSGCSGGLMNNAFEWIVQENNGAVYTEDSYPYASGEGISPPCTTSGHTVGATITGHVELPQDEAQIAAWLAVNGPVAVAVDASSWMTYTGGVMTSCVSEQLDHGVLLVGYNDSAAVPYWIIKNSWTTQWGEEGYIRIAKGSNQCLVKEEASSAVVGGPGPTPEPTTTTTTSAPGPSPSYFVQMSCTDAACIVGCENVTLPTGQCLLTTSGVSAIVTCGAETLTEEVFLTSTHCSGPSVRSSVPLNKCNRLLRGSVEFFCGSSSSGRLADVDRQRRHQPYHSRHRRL
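Detergent-containing arm of a paired screen for aggregation-based inhibition: 0.01% Triton X-100 present. Cruzain at 1.5 nM cleaved 2 uM Z-FR-AMC at pH 5.5 with 5 mM DTT; AMC fluorescence gain over 60 s measured activity.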
Cruzain inh noDet = qHTS Assay for Promiscuous and Specific Inhibitors of Cruzain (without detergent). Cruzipain (Trypanosoma cruzi), P25779. purified cruzain, Z-FR-AMC fluorescence, no detergent. Potency, µM, without a hit: max response, negative = inhibition, hits mostly inhibitors. 200,000 tested, 2.3% active; active = well fitted curve in the direction sought with a large enough effect; inconclusive = small, poorly fitted or top-dose-only effect, or another doubt; inactive = no such curve, though single readings can be large; an effect the other way counts as inactive or inconclusive;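 also: plate controls were enzyme without inhibitor for no effect and buffer without enzyme for full effect; nearly all actives have a fitted effect of over 40% in size; top concentration of the series not given in the record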
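Purified cruzain at 1.5 nM, pre-incubated 15 min with compound at room temperature in 100 mM sodium acetate pH 5.5, 5 mM DTT, 0.00005% Triton X-100. Reaction started with 2 uM Z-FR-AMC; AMC fluorescence increase over 60 s gives rate.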
RE007 growth inh = qHTS Assay for Inhibitors of the HIV-1 protein Vpr; S. pombe RE007 Vpr strain, BacTiter-Glo ATP luminescence, 24 h; control for the full effect not named in the record; Potency, µM (doses to about 92.2 µM), inactives show at the highest dose activity change, negative = less growth; 360,000 tested, 0.21% active; AID 651644, 2012; active = well fitted falling curve with a large enough effect; inconclusive = small, poorly fitted or top-dose-only effect; inactive = no such curve, though single readings can be large or run the other way;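 also: % is scaled to controls: 0 for no effect and ±100 for the full control effect; nearly all actives have a fitted effect of over 50% in size; the assay follows cell death caused by Vpr and the record does not say whether a fall means rescue or toxicity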
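Fission yeast strain RE007, carrying one chromosomally integrated HIV-1 vpr copy, was seeded at OD 0.01 in PMG+AL medium with 23 nL pinned compound. After 24 h at 30 °C and 99% humidity, viability was read by BacTiter-Glo luminescence.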
2A StopGo = High Throughput Screening for Foot and Mouth Disease Virus Antivirals; human cells with a luciferase reporter of 2A StopGo recoding; control for the full effect not named in the record; Potency, µM (highest dose often 57.9 µM), for the others: top-dose signal change, negative = less light; 410,000 tested, 1.2% active; active = well fitted falling curve with a large enough effect; inconclusive = small, poorly fitted or top-dose-only effect; inactive = no such curve, though single readings can be large or run the other way; tested in HEK293T cells; also: % is scaled to controls: 0 for no effect and ±100 for the full control effect; nearly all actives have a fitted effect of over 45% in size; luciferase light after 4 h
Lassa entry inh = qHTS for Inhibitors of binding or entry into cells for Lassa Virus | Lassa virus pseudotype entry inhibition, cell reporter; control for the full effect not named in the record | 300,000 tested, 1.2% active | AID 540256, 2011 | Potency, µM (series often up to 37.9 µM), without a hit: at the highest dose activity change, negative = inhibition, hits mostly inhibitors; active means well fitted inhibition curve with a large enough effect; inconclusive means small, poorly fitted or top-dose-only effect, or effect the other way; inactive means flat fitted curve, though single readings scatter; tested in HEK293 cells; also: % is scaled to controls: 0 for no effect and ±100 for the full control effect; nearly all actives have a fitted effect of over 50% in size; luciferase read-out
* marks the source's active call; other numbers are inactive results; ? = inconclusive; . = not tested or not shown; [ ] = remark or other dose. Unless noted, calls follow the shape of the dose curve; as a rule, active means well fitted rising curve with a large enough effect; inconclusive means small, poorly fitted or top-dose-only effect; inactive means no such curve, though single readings can be large or run the other way. Potency is read from the fitted curve at half-maximal effect. Hits appear at their usual frequency (roughly 4.8% active in at least one column).

entry	SMILES	Lassa entry inh	NS1 inh	SARS PLP yeast	MARV entry inh	Cruzain inh noDet	Cruzain inh Det	2A StopGo	RE007 growth inh
1	COc1ccc(-c2cn(-c3ccccc3)nc2CO)cc1	-4%[46.1 µM]	-20%	-3%	?	.	.	0%	-1%
2	O=C(NC1(C(F)(F)F)NC(=O)N(CC2CCCCC2)C1=O)c1ccco1 (stereo not given)	18%	-4%	11%	-5%	0%	-5.9%	.	3%
3	COc1ccc(O)c(C2Nc3ccccc3-n3c(-c4ccccc4)c4c(=O)n(C)c(=O)n(C)c4c32)c1 (stereo not given)	10%[46.1 µM]	.	.	2%[46.1 µM]	?	-8.7%	40µM*	.
4	C=CCOc1cccc(/C=C\c2nc(O)c([N+](=O)[O-])c(=O)[nH]2)c1	.	-2%	-1%	.	.	.	-10%	0%
5	COc1ccc(-c2nnc(Nc3ccc(OC)c(C(N)=O)c3)c3ccccc23)cc1	-12%[46.1 µM]	.	.	.	-8%	-5.0%	0%	.
6	Cc1cccc(C(=O)NNC(=O)c2cc3cc4ccccc4nc3s2)c1	-25%	0%	0%	?	20µM*	3.5%	?	-2%
7	N#Cc1ccccc1NC(=O)c1cnc(N2CCOCC2)c2ccccc12	-20%[46.1 µM]	.	.	.	-14%	-5.7%	-12%	.
8	CC(=O)Nc1cccc(Oc2cnc3ccccc3n2)c1	0%	1%	-1%	1%	-5%	3.4%	29%	34%
9	Cc1ccc(-c2nc3ccccc3nc2NN)cc1	.	-4%	-1%	.	.	.	41%[activator]	0%
10	Brc1ccccc1OCCCCCN1CCOCC1	.	.	0%	-17%[46.1 µM]	.	.	17%	-18%
11	COC(=O)C(NNc1ccccc1C)(NC(=O)c1ccc(F)cc1)C(F)(F)F (stereo not given)	?	-13%	-1%	?	3%	-0.5%	-18%	-4%
12	NC(=O)c1cc(N=Nc2c(N)[nH]n(-c3c(Cl)cc(Cl)cc3Cl)c2=O)ccc1Cl	-9%	4%	0%	-21%[46.1 µM]	.	.	-12%	-20%
13	CCOC(=O)C1=C(C)NC2=C(C(=O)C(C(=O)OCC)C(c3ccco3)C2)C1c1ccccn1 (stereo not given)	-3%	0%	9%	-32%	7%	0.4%	-15%	11%
14	O=C(COC(=O)CCCN1C(=O)c2ccccc2C1=O)Nc1ncc(Cl)cc1Cl	11%	-8%	?	?	-8%	-9.4%	-19%	-10%
15	COc1ccc(S(=O)(=O)N2CCN(Cc3cccc([N+](=O)[O-])c3)CC2)cc1	12%	.	.	?	.	.	-22%	6%
16	CN1C(=O)CC(N2CCN(c3ccccn3)CC2)C1=O (stereo not given)	0%	?	19%	-11%	-6%	-3.1%	-8%	-17%
17	CC1CCC(NC(=O)C2(C)Cc3ccccc3C(=O)N2Cc2ccc(F)cc2)CC1 (stereo not given)	.	.	.	13%[46.1 µM]	4%	-2.5%	-16%	.
18	CCOC(=O)c1c(NC(=O)COC(=O)CNC(=O)c2ccco2)sc(C(C)=O)c1C	5%	-5%	-6%	2%	25%	-16%	-26%	-1%
19	Cn1ccnc1SCC(=O)c1ccc(Br)cc1	26%	-4%	-12%	6%	-29%	-3.8%	.	-10%
20	O=C(Nc1ccc(Br)cc1)C1C2C=CC3(O2)C1C(=O)N(CCN1CCCCC1)C3C(=O)NC1CCCCC1 (stereo not given)	13%[46.1 µM]	-14%	8%	?	.	.	-7%	4%
21	Fc1ccccc1/C=N/N1CCN(Cc2ccccc2Cl)CC1	-2%	-8%	5%	7%	.	.	29%	-20%
22	CCOC(=O)c1ccc(NC(=O)CCc2nc3cccnc3n2Cc2cccs2)cc1	-2%[46.1 µM]	.	.	?	?	-3.0%	-27%	.
23	Cc1cc(C)c(NC(=O)C2CCN(c3nnc(C)c4c(C)n(-c5ccccc5)nc34)CC2)c(C)c1	10%[46.1 µM]	.	.	.	19%	-18%	-11%	.
24	O=C(CSc1cc(Cl)ccc1Cl)NCCCn1ccnc1	5%	1%	-1%	-10%[46.1 µM]	.	.	2%	1%
25	CCOC(=O)Cc1cc(=O)n2[nH]c(C(C)(C)C)cc2n1	-6%	1%	0%	14%[46.1 µM]	.	.	-18%	-5%
26	CCC(C)N1CC(C(=O)NC2CCCCC2)CC1=O (stereo not given)	9%	1%	-1%	-4%	-10%	5.8%	0%	-15%
27	COc1ccccc1-c1nnc(-c2ccc(F)cc2)o1	0%	.	.	-23%	.	.	51%[activator]	-23%
28	Cc1ccc(CC(=O)Nc2cccc(C)n2)cc1	?	-10%	0%	-5%	3%	-1.7%	36%[activator]	20%
29	COc1cc(OC)cc(C(=O)NCCCNC(=O)c2cccnc2)c1	?	2%	-1%	7%[46.1 µM]	.	.	-10%	-12%
30	CCOC(=O)c1c(C)oc2c1c1c(c3ccccc32)OCN(Cc2ccccn2)C1	?	-22%	-18%	1%	-7%	-9.1%	-6%	-24%
31	O=C(Nn1cnnc1)c1ccc(Cl)c(Cl)c1	.	3%	-7%	.	.	.	3%	-10%
32	Cc1ccc(NC(=O)CN(C)CC(=O)Nc2c(C)cccc2C)c(Br)c1	-12%	-1%	8%	?	23%	-1.0%	-13%	-22%
33	CCOC(=O)C1CCN(C(c2cccc(OC)c2)c2sc3nc(C)nn3c2O)CC1 (stereo not given)	.	-20%	-2%	.	?	2.8%	1%	18%
34	CSc1ccc(/C=C(/NC(=O)c2ccco2)C(=O)N2CCCCC2)cc1	3%[46.1 µM]	-8%	-5%	0%[46.1 µM]	.	.	25%	0%
35	CCOc1ccccc1N1Cc2cc(C)c(C)cc2C1	.	13%	7%	.	25µM*	3.1%	1%	-15%
36	CCCCNC(=S)NNC(=O)c1csc(C)c1C	13%	9%	17%	13%	4%	0.2%	51%[activator]	7%
37	Cc1cccc(NC(=S)N(CCc2ccncc2)C(C)C)c1C	-3%[46.1 µM]	.	3%	?	.	.	16%	2%
38	CC(C)(C)OC(=O)N1CCC(c2c(C(=O)Nc3ccc4c(c3)OCO4)cnn2-c2ccc(F)cc2F)CC1	-23%[46.1 µM]	.	.	.	-25%	-11%	18%	.
39	COc1cc(C2CC(=O)c3cnc(N)nc3C2)cc(OC)c1OC (stereo not given)	-2%	-4%	24%	5%	7%	-3.0%	-6%	10%
40	COc1ccc(CCN(C)C(=O)COc2ccc(N(C)S(=O)(=O)c3ccc(C)cc3)cc2)cc1OC	-17%	.	-9%	?	.	.	0%	18%
41	N#CC(c1ccccc1)C1CCN(Cc2ccccc2)CC1 (stereo not given)	?	0%	14%	-23%	0%	0.6%	-21%	-7%
42	COCCNC(=S)N/N=C(\C)c1cccc(C(F)(F)F)c1	?	5%	19%	-7%	.	.	-12%	-30%
43	COCCNC(=O)c1ccc(CSc2nc3ccncc3n2Cc2ccccc2)cc1	2%[46.1 µM]	.	.	?	9%	-4.2%	16%	.
44	Cc1ccc(S(=O)(=O)N2Cc3ccccc3CC2C(=O)Nc2cc(C)on2)cc1 (stereo not given)	5%	-3%	-2%	0%	-12%	-0.1%	28%	-18%
45	Cc1ccc(C(=O)NCC(=O)N(C)Cc2ccc(Cl)cc2Cl)s1	-3%	.	-2%	-19%	.	.	-8%	4%
46	COc1ccccc1C1C2=C(N=c3s/c(=C/c4cccc(OCC(=O)O)c4)c(=O)n31)c1ccccc1CC2 (stereo not given)	13%	?	-14%	1%	?	28µM*	-25%	16%
47	CCC(C(=O)N1CCN(c2ccccc2)CC1)n1nc(C)n2c(cc3sccc32)c1=O (stereo not given)	.	.	.	?	22%	-4.1%	0%	.
48	CCN(CC)c1ccc(S(=O)(=O)N2CCOCC2)cc1NC(=O)COC(=O)C1=COCCO1	3%	.	.	-2%[46.1 µM]	.	.	5%	2%
49	CCC(C)C1Nc2ccc(C(=O)NCCc3ccc(OC)c(OC)c3)cc2NC1=O (stereo not given)	?	-19%	0%	?	.	.	?	-18%
50	O=C(c1ccccc1)C1OC1C(=O)c1ccccc1 (stereo not given)	?	.	.	7.9µM*	.	.	-9%	-26%
51	CCn1c(=O)c(=O)[nH]c2cc(C(=O)NC3CCCC3)ccc21	-6%	6%	-1%	?	.	.	-16%	-7%
52	CC1CCCN(C(=O)CCc2ccccc2)C1 (stereo not given)	4%	6%	-20%	10%	-4%	1.4%	18%	-3%
53	O=P(O)(OCc1ccccc1)OCc1ccccc1	.	.	-19%	.	1%	3.3%	0%	6%
54	Cc1ccc(S(=O)(=O)N2CCSC2)cc1C	3%	7%	.	1%	-7%	3.4%	.	3%
55	Clc1ccc(-c2nc(-c3cnccn3)no2)cc1	-28%	-2%	2%	-10%[46.1 µM]	.	.	13%	?
56	COc1ccccc1-n1c(CNC(=O)c2cccc([N+](=O)[O-])c2C)n[nH]c1=S	7%[46.1 µM]	.	-4%	15%[46.1 µM]	.	.	1%	9%
57	Cc1ccccc1OCCCn1cc(C(=O)C(=O)N2CCOCC2)c2ccccc21	?	-10%	0%	?	.	.	6%	-1%
58	O=C(Cn1ncn2nc(-c3cccs3)cc2c1=O)NCc1ccc(Cl)cc1	-2%[46.1 µM]	.	.	2%[46.1 µM]	-6%	-2.3%	-5%	.
59	O=C(CCN1C(=O)C2CCCCC2C1=O)Nc1ccc(OC(F)F)cc1 (stereo not given)	0%	.	2%	25%	.	.	3%	?

High-throughput results from PubChem BioAssay.
